StopGo RLuc = Primary qHTS Assay for Foot and Mouth Disease Virus Antivirals against NCGC Sytravon and CBC Compound Libraries: Renilla Luciferase Signal; hit rate 0.32% among 120,000; Potency, µM (titrated, usually from 57.5 µM), without a hit: top-dose signal change, negative = less light; HEK cells with a luciferase reporter of 2A StopGo recoding; active means well fitted falling curve with a large enough effect; inconclusive means small, poorly fitted or top-dose-only effect; inactive means no such curve, though single readings can be large or run the other way; note: nearly all actives have a fitted effect of over 55% in size; overnight with compound
2A firefly = Primary qHTS Assay for Foot and Mouth Disease Virus Antivirals against NCGC Sytravon and CBC Compound Libraries: Firefly Luciferase Signal; HEK cells with a luciferase reporter of 2A StopGo recoding; Potency, µM (titrated, usually from 57.5 µM), without a hit: top-dose signal change, negative = less light; hit rate 0.23% among 120,000; AID 1745856, 2022; active = well fitted falling curve with a large enough effect; inconclusive = small, poorly fitted or top-dose-only effect; inactive = no such curve, though single readings can be large or run the other way; note: nearly all actives have a fitted effect of over 60% in size; overnight with compound
An asterisk follows results filed as active; ? = inconclusive; [ ] = another dose, or the depositor's remark. % is set by controls: 0 for no effect and ±100 for the full control effect; potency is the fitted concentration of half-maximal effect.

No.	SMILES	StopGo RLuc	2A firefly
1	CCCC/C(=N\NC(C)=O)c1ccccc1	-3%	0%
2	COc1ccc(CCNC(=O)C(=O)NCC(c2ccco2)S(=O)(=O)c2cccs2)cc1OC (stereo not drawn)	-15%	?
3	Cc1cc2oc(C(=O)Nc3c(C)n(C)n(-c4ccccc4)c3=O)c(C)c2cc1C	0%	-6%
4	Nc1ccc(C2CC2(Cl)Cl)cc1 (stereo not drawn)	-2%	0%
5	Cc1ccc(NC(=O)C(Cc2ccccc2)NS(=O)(=O)c2ccc3c(c2)c(=O)n(C)c(=O)n3C)c(C)c1 (stereo not drawn)	-18%	-17%
6	Cc1ccc(C(=O)C(C)OC(=O)Cc2n[nH]c(=O)c3ccccc23)cc1 (stereo not drawn)	222%[activator]	24%
7	CCN(CC)c1ccc(NC(=O)CCc2c(C)nc3ncnn3c2C)c(C)c1	-7%	11%
8	O=C(NC1CC1)c1cc(=O)c2cc(Cl)ccc2o1	0%	19%
9	CCn1c(=O)c2c(nc(-n3nc(C)cc3C)n2CC)n(C)c1=O	-3%	2%
10	O=C(O)c1ccc(Cn2cnc3cccnc32)cc1	-6%	-12%
11	Cn1c(=O)c2c(nc(Cl)n2CC(=O)NC2(C#N)CCCCC2)n(C)c1=O	-7%	-7%
12	COc1ccc(N2CC(C(=O)NCCS(=O)(=O)N3CCN(c4ccccc4)CC3)CC2=O)cc1 (stereo not drawn)	-7%	-18%
13	COc1ccc(C(NC(=O)C2CCCC2)c2nccc3cc(OC)c(OC)cc23)cc1OC (stereo not drawn)	11%	4%
14	N#Cc1c[nH]n2c(NC3CCCC3)c(-c3ccc(Br)cc3)nc12	-4%	25%
15	CCOc1ccc(NC(=O)c2c(NC(=O)c3cccs3)sc3c2CCC(C(C)(C)C)C3)cc1 (stereo not drawn)	-8%	37%[activator]
16	Cc1ccc(NC(=O)Cn2cc(C#N)c3ccccc32)cc1F	62%[activator]	5%
17	CC(C)(C)C(=O)NCCCC(=O)NCCc1ccccc1	4%	128%[activator]
18	CCc1ccccc1NC(=O)c1cc(-c2ccc(Cl)s2)nc2ccccc12	-11%	-9%
19	CSc1cccc(NC(=O)c2ccc3c(c2)CCCN3S(C)(=O)=O)c1	?	?
20	O=C(Cc1cccs1)Nc1c(NCc2ccccc2)c2ccccc2oc1=O	4%	5%
21	Cc1cc2nc(/C=C/c3cccc(O)c3)sc2cc1C	53%[activator]	108%[activator]
22	COc1ccc(C(NC(=O)c2nc(-c3ccccc3)oc2C)c2ccccc2)cc1 (stereo not drawn)	-3%	20%
23	CCS(=O)(=O)N1CCCN(c2ccc(=O)n(-c3ccccc3)n2)CC1	-14%	-4%
24	Cc1cccc(NC(=O)CCN2CCN(c3ccccc3F)CC2)c1	-6%	0%
25	CC(C)c1ccc(N/C=C/C(=O)c2ccc(Br)cc2)cc1	13%	0%
26	Cc1ccc(Cl)cc1-n1ncc2c(NCCc3ccccc3)ncnc21	?	45%[activator]
27	CCOc1ccccc1Oc1coc2cc(OCc3cc(C)ccc3C)ccc2c1=O	-2%	20%
28	N#Cc1ccc(COc2ccccc2C(=O)Nc2ccccc2)cc1	-3%	9%
29	CCOC(=O)CS(=O)(=O)c1nc(-c2ccc(F)cc2)cc(C(F)(F)F)n1	28µM*	?
30	O=C(CN1C(=O)C2(SCC(=O)N2c2ccc(F)cc2)c2ccccc21)NCCc1ccccc1 (stereo not drawn)	1%	-3%
31	CCOC(=O)c1[nH]c2c(c1Cc1ccccc1OC)C(=O)CC(c1ccccc1)C2 (stereo not drawn)	181%[activator]	0%
32	CSc1nc2sc3c(c2c(=O)n1-c1ccc(C)c(Cl)c1)CCN(C(C)=O)C3	-11%	-19%
33	Cn1cnc2c1c(=O)n(CC(=O)N1CCC1)c(=O)n2C	9%	18%
34	CC1CC(O)C(C)(C)N(C)C1 (stereo not drawn)	-2%	11%
35	N#Cc1cccc(/C=C2/CCOc3ccc(Br)cc3C2=O)c1	-4%[1.06 µM]	10%
36	Clc1cccc(N2CCN(c3nc4ccccc4c4nc(-c5cccnc5)nn34)CC2)c1	-8%	-11%
37	N#CCCN1CCC(c2ccccc2)C1 (stereo not drawn)	-10%	-2%
38	CCOc1nc(NC(=O)NS(=O)(=O)Oc2ccccc2Cl)nc(-c2ccccc2)n1	2%	123%[activator]
39	CC(C)CCNC(=O)c1cc(=O)[nH]c2ccc(S(=O)(=O)Nc3ccc(F)cc3)cc12	255%[activator]	-2%
40	Cc1cccc(NC(=O)/C(C#N)=C/c2cc(C(C)(C)C)c(O)c(C(C)(C)C)c2)c1C	6.3µM*	?
41	O=C(NC1CC1)C1CCCN(c2ncnc3nc[nH]c23)C1 (stereo not drawn)	-11%	-10%
42	Cc1cc(C)c2c(=O)cc(CSCC(=O)Nc3ccccc3Cl)[nH]c2c1	3%	-6%
43	CCCNC(=O)NC(=O)CN(C)C1CCCCC1	-1%	-2%
44	CCCOC(=O)c1ccc(Oc2c(C)oc3cc(OC)ccc3c2=O)cc1	-9%	5%
45	CC(=O)c1cccc(C#Cc2ccccc2)c1	0%	205%[activator]
46	COc1ccc2c(c1)c1c(c(=O)n(-c3ccc(C)cc3)c(=O)n1CC(=O)N1CCCC1)n2C	-11%	-12%
47	O=C(Nc1ccccc1F)c1ncoc1-c1cccc(Cl)c1	33%[activator]	58%[activator]
48	CCc1ccc(S(=O)(=O)N2CCN(c3ccc(Cl)c(Cl)c3)CC2)cc1	-13%	-8%
49	COC(=O)c1[nH]c(C)c(/C(O)=C2\C(=O)C(=O)N(CCCn3ccnc3)C2c2cccnc2)c1C (stereo not drawn)	-1%	-2%
50	CCc1cccc(NC(=O)CSc2nc3ccccc3nc2N2CCCCC2)c1	?	?

The list goes on:
No.	SMILES	StopGo RLuc	2A firefly
51	O=C(NCc1n[nH]c(=O)c2ccccc12)c1ccc(Cl)cc1Cl	10%	22%
52	COCCn1c(=N)c(C(=O)NC(C)c2ccccc2)cc2c(=O)n3cc(C)ccc3nc21 (stereo not drawn)	-7%	-19%
53	CN(C(=O)CSc1nnc(COc2ccccc2)o1)c1ccccc1	-2%	5%
54	O=C(CSc1nc2ccccc2nc1Cc1ccc(Cl)cc1)NCCc1ccccc1	5%	-22%
55	C=CCn1c(-n2nc(CC)cc2CC)nc2c1c(=O)n(C)c(=O)n2C	-8%	-1%
56	Cn1c(=O)n(C)c2cc(N3CCOCC3)c(NS(=O)(=O)c3ccc(Br)cc3)cc21	44%[activator]	9%
57	N#Cc1ccccc1COc1ccc(Cl)c2ccccc12	23%	0%
58	N#CC1(C(N)=O)C(c2ccccc2)CC(=O)CC1c1ccccc1 (stereo not drawn)	6%	23%
59	COC(=O)[C@]12C[C@H](CC(=O)NCCc3ccccc3OC)C(=O)N(CCC3=CCCCC3)C1=C[C@H](C(C)C)O[C@@H]2C1CC1	-18%	-27%
60	COc1ccc(C(=O)c2sc(Nc3cccc(Cl)c3)nc2N)cc1OC	13%	13%
61	COCC(C)NC(=O)c1cc(-c2ccccc2Cl)nc2ccccc12 (stereo not drawn)	20%	25%
62	COc1ccc(Nc2nc(N)nc(CSc3nc4cc(OC)ccc4s3)n2)cc1	-28%	10%
63	Cc1oc(-c2nc(C#N)c(NCC3CCCO3)o2)cc1S(=O)(=O)N1CCCCCC1 (stereo not drawn)	19%	?
64	Cc1ccc(-c2nnc(Nc3ccc(Br)cc3)c3ccccc23)cc1S(=O)(=O)NCC1CCCO1 (stereo not drawn)	-9%	22%
65	C/C(=N\O)C1=CC(C)(C)CCC1	19%	19%
66	Cc1cccc(-c2nc3cc(NC(=O)c4ccc(C)c([N+](=O)[O-])c4)ccc3o2)c1	-6%	11%
67	CC(C)(C)CC(=O)OCc1cc(=O)oc2cc(O)ccc12	10%	200%[activator]
68	O=C(Cn1cnc2ccccc2c1=O)NCCC(=O)Nc1ccc(F)cc1	-7%	-4%
69	O=C(NC1CC1)c1cccc(NC(=O)c2cc(C3CC3)nc3ccccc23)c1	-6%	2%
70	Cc1cc(NS(=O)(=O)c2cc(-c3ccc4nnc(C)n4n3)ccc2C)c(C)cc1Br	36%[activator]	-1%
71	Cc1ccc(CN2CC(C(=O)N(C)CC(=O)Nc3c(Cl)cccc3Cl)CC2=O)cc1 (stereo not drawn)	-11%	-8%
72	O=C(NCc1ccccn1)c1ccc(CN2C(=O)CCn3nccc32)cc1	-1%	-2%
73	CCOc1ccc(-n2c(=O)c3sc4ccccc4c3n(Cc3cccc(C)c3)c2=O)cc1	-10%	-1%
74	CC1(C)CC(Nc2cc(C(=O)N3CCOCC3)c3ccccc3n2)CC(C)(C)N1	-1%	-11%
75	CN(Cc1ccsc1)C(=O)Cc1cccs1	-5%	-5%
76	O=C(O)c1cccc(S(=O)(=O)NCC(F)(F)F)c1	5%[1.06 µM]	45%[activator]
77	COc1ccc(CNC(=O)CC(C)n2nc(C)cc2C)cc1 (stereo not drawn)	-11%	-18%
78	COc1ccccc1CNc1ncnc2c1c(-c1ccccc1)cn2-c1ccc(Br)cc1	7%	-16%
79	Cc1ccc(S(=O)(=O)N2CCCC2C(=O)Nc2ccc(Br)cc2)cc1 (stereo not drawn)	3%	0%
80	COc1ccc(NC(=O)COc2ccc3c(=O)c(Oc4ccc(F)cc4)coc3c2)cc1	-9%	-5%
81	CCCCCCCOc1ccc(C(=O)O)cc1	-5%	0%
82	Cc1ccc2c(c1)c1c(c(=O)n(-c3cccc(Cl)c3)c(=O)n1CC(=O)N1CCCC1)n2C	-6%	-2%
83	O=C(NCC1OCCc2ccccc21)c1ccc(NC(=O)c2cccc(Br)c2)cc1 (stereo not drawn)	13%	12%
84	O=C(Nc1cccc(C(F)(F)F)c1)c1cc(CN2CCOCC2)on1	-18%	-13%
85	O=C(NCc1ccc(F)cc1)c1ccc2c(c1)N(Cc1c(F)cccc1Cl)C(=O)CS2	0%	15%
86	Cc1ccccc1C(=O)Nc1nc(-c2cc3ccccc3oc2=O)cs1	-10%	1%
87	CC(C)c1ccccc1OCC(O)Cn1cnc2c1c(=O)n(C)c(=O)n2C (stereo not drawn)	-15%	-1%
88	COc1ccc(NC(=O)CSc2ncc3c(n2)-c2ccccc2N(C)S3(=O)=O)cc1Cl	-16%	-11%
89	COc1ccc(CCN2CCC(CNC(=O)c3cnn(-c4ccc(C)cc4)c3C3CCN(C(=O)OC(C)(C)C)CC3)CC2)cc1	5%	-21%
90	O=S(=O)(CCN1CCC2(CC1)OCCO2)c1ccccc1	-11%	16%
91	Cc1cccc2[nH]cc(C(=O)/C(C#N)=C\c3ccc(C#N)cc3)c12	0%	16%
92	COc1cc(CN2CCN(C(=O)COc3ccccc3)CC2)cc(OC)c1O	8%	7%

Molecules shown so far that contain fluorine:
No.	SMILES	StopGo RLuc	2A firefly
16	Cc1ccc(NC(=O)Cn2cc(C#N)c3ccccc32)cc1F	62%[activator]	5%
24	Cc1cccc(NC(=O)CCN2CCN(c3ccccc3F)CC2)c1	-6%	0%
29	CCOC(=O)CS(=O)(=O)c1nc(-c2ccc(F)cc2)cc(C(F)(F)F)n1	28µM*	?
30	O=C(CN1C(=O)C2(SCC(=O)N2c2ccc(F)cc2)c2ccccc21)NCCc1ccccc1 (stereo not drawn)	1%	-3%
39	CC(C)CCNC(=O)c1cc(=O)[nH]c2ccc(S(=O)(=O)Nc3ccc(F)cc3)cc12	255%[activator]	-2%
47	O=C(Nc1ccccc1F)c1ncoc1-c1cccc(Cl)c1	33%[activator]	58%[activator]
68	O=C(Cn1cnc2ccccc2c1=O)NCCC(=O)Nc1ccc(F)cc1	-7%	-4%
76	O=C(O)c1cccc(S(=O)(=O)NCC(F)(F)F)c1	5%[1.06 µM]	45%[activator]
80	COc1ccc(NC(=O)COc2ccc3c(=O)c(Oc4ccc(F)cc4)coc3c2)cc1	-9%	-5%
84	O=C(Nc1cccc(C(F)(F)F)c1)c1cc(CN2CCOCC2)on1	-18%	-13%
85	O=C(NCc1ccc(F)cc1)c1ccc2c(c1)N(Cc1c(F)cccc1Cl)C(=O)CS2	0%	15%

High-throughput results as filed in PubChem.

Outcome played no part in choosing rows; 0.55% or so of the library scored in one or more.
